# AID504770 = growth inhibition of E. coli YBA685, primary screen, V. cholerae RctB inhibitors; E. coli YBA685 rctB-dependent plasmid, OD600 growth, 3 h; active compounds read low; z-score (no concentration beside the values); 130,000 compounds, 0.27% hits; AID 504770, 2011;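 active = z-score under -2 on both plates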;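 note: wells of about 30 µL received 100 nL stock; score is relative to mean and SD of the test wells; the first replicate is given; strong numbers were not always called active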
# CapD inh = Bacillus anthracis CapD inhibitors, primary screen, biochemical, fluorescence intensity | purified CapD enzyme, fluorescence intensity read-out; active compounds read low; some hits fall short of the stated cut | z-score (no concentration beside the values) | 140,000 compounds, 0.23% hits | CapD gamma-glutamyltranspeptidase (Bacillus anthracis Ames Ancestor);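 active = z-score under -4 in either of two replicates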;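 note: stock transfer was 100 nL into about 40 µL; score is relative to mean and spread of the plate; one replicate is shown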
# The depositor's hits bear a star; . = no result given; & = joins results of further samples.
# A first look (2 entries):
SMILES,AID504770,CapD inh
CN1C/C(=C/c2ccc3c(c2)OCCO3)C(=O)/C(=C/c2ccc3c(c2)OCCO3)C1,-0.1,.
CCCCN(Cc1ccccc1)Cc1ccccc1O,-0.35,-0.065

# This part in full, from the start:
SMILES,AID504770,CapD inh
CN1C/C(=C/c2ccc3c(c2)OCCO3)C(=O)/C(=C/c2ccc3c(c2)OCCO3)C1,-0.1,.
CCCCN(Cc1ccccc1)Cc1ccccc1O,-0.35,-0.065
C=CCn1c(C)cc(C(=O)Cn2c(C)nc3cc4c(cc32)OCCO4)c1C,0,.
NC(N)=NC(N)=Nc1ccccc1,.,0.035&0.045
CN(Cc1ccccc1)C(=O)COc1ccccc1,-0.65,53.1
COc1cccc(NC(=O)COc2ccccc2OC)c1,-0.2,-0.125
COC(=O)c1ccc(N(C)c2nc(C)cc(C)n2)cc1,.,2.02
COc1cccc(N2CCN(Cc3ccsc3)CC2)c1,0.5,0
S=C1NC(=S)NC(c2ccc3c(c2)OCO3)N1,-0.7,0.49
Cc1ccc(NC(=O)c2sc3ncn(CC(=O)N4CCN(c5ccccn5)CC4)c(=O)c3c2C)cc1Cl,.,1.39
Cc1ncc(S(=O)(=O)Cc2cccs2)c(N)n1,-0.1,-0.41
CCOC(=O)c1c(C)oc2ccc(OCC(=O)C(C)(C)C)cc12,-0.35,0.16
Cc1cc(C(=O)OCC(=O)NCc2ccccc2)c(C)o1,-0.05,0.325
COc1ccc2[nH]c(=O)c(C(c3nnnn3Cc3ccccc3)N(C)C3CCCCC3)cc2c1 (stereo not given),-0.4,.
CCC(Sc1nc2ccccc2c(=O)n1NC(=O)c1ccc(OC)cc1)C(=O)NCc1cccnc1 (stereo not given),.,1.37
COc1ccc(-c2cc(CNC(=O)CN(C)Cc3ccccc3)on2)cc1,.,-0.285
COc1ccc(C2(CCNC(C)c3ccccc3)CCOC(C)(C)C2)cc1 (stereo not given),.,-0.04
CC1CC(C)CN(C(=O)COC(=O)/C=C/c2cccc(F)c2)C1 (stereo not given),0.2,.
Cc1ccc(NC(=O)CSc2nc3ccccc3nc2Cc2cccc([N+](=O)[O-])c2)cc1Cl,.,-0.06
CCOc1ccccc1N1CCN(C(=O)OCCN2CCN(Cc3cc(OC)c4c(c3)OCO4)CC2)CC1,.,-0.71

# Record cards, from the list above. Screens in order: AID504770	CapD inh
# COc1cccc(N2CCN(Cc3ccsc3)CC2)c1 across the screens: 0.5	0
# NC(N)=NC(N)=Nc1ccccc1 across the screens: .	0.035&0.045

# Continuation:
SMILES,AID504770,CapD inh
O=C(O)c1ccccc1Nc1ccnc(N2CCCCC2)n1,-0.85,.
O=C1C=C(c2ccccc2)C(=O)c2ccccc21,-1.05,-0.44
Cc1ccc(S(=O)(=O)NC(=O)NC2CCCc3ccccc32)cc1 (stereo not given),-0.2,1.17
CC1CCN(c2nn3c(N)c(/C=C4\C=Nc5ccccc54)c(=O)nc3s2)CC1,-0.1,-0.48
O=C(COC(=O)c1ccccc1F)c1ccc(-n2nncc2-c2ccc(F)cc2)cc1,2,-0.28
CC(=O)N1CCC(N(C(=O)C2CC2)c2ccc3c(c2)CCN3C(C)=O)CC1,.,0.485
CCCc1cc(=O)[nH]c(/N=C(\N)Nc2cccc(C(F)(F)F)c2)n1,2.05,0.255
CC(C)NC(=O)CCCc1nc(-c2ccccc2)no1,0.05,-0.635
COC(=O)c1cc(-c2cocc2C=C(C#N)C#N)ccc1Cl,0.75,.
Cc1ccc(S(=O)(=O)NC2=NCCC2)cc1,0.65,0.715
CC(C)=CCOc1ccc2c3c(c(=O)oc2c1)CCC3,-0.35,7.79
O=C(NCCNc1ccc(C(F)(F)F)cn1)Nc1ccccc1Cl,0.05,2.45
CN(C)CCNc1nc(S(=O)(=O)c2ccccc2)c(Cl)s1,-0.25,.
CC(=O)N(C)c1ccc(NC(=O)c2sc3ccccc3c2Cl)cc1,-0.3,-0.885
CC1(C)Cc2nc3sc4c(=O)n(CC(=O)NCc5ccco5)cnc4c3cc2CO1,-0.25,.
CCN(c1cccc(C)c1)S(=O)(=O)c1ccc2c(c1)C(=C(C)C)C(=O)N2,-0.05,-0.77
CCCCOc1ccc(C(=O)NCc2nnc(SCC(=O)Nc3sc4c(c3C(=O)OCC)CCC4)n2C)cc1,.,-0.55
CC(NC(=O)COc1ncnc2ccccc12)C1CC2CCC1C2 (stereo not given),0,-0.61
CCOC(=O)c1cccc(N(C(=O)Cn2nnc3ccccc32)C(C(=O)NCC2CCCO2)c2nc3ccccc3n2C)c1 (stereo not given),0.05,.
N#CC(=C1SCCCCS1)S(=O)(=O)c1ccc(Cl)cc1,0.8,-0.19
Cc1oc(-c2ccccc2)nc1CS(=O)CC(=O)O (stereo not given),-0.45,-0.11
CCOC(=O)c1cc(C)nc(SC)c1C#N,.,0.17
O=C(c1cc2ccccc2o1)N(C1CC1)C1CCS(=O)(=O)C1 (stereo not given),2.2,.
O=C(CN1CCc2ccccc21)Nc1cccc(C(F)(F)F)c1,2.4,.
O=c1[nH]c(SCc2ccccc2)nc(O)c1Cc1ccccc1,-0.25,-0.215
CC1CCN(c2nc(-c3ccc([N+](=O)[O-])cc3)nc3ccccc23)CC1,.,-0.215
COC(=O)c1ccc2nc(-c3ccc(C)cc3)c(-c3ccc(C)cc3)nc2c1,.,1.17
CCOC(=O)CSc1nc2cc(C(=O)OC)ccc2c(=O)n1CCc1ccc(S(N)(=O)=O)cc1,-0.05,2.21
NC(=O)Cn1c(=O)c2ccccc2n(CC(N)=O)c1=O,-0.35,5.21
COc1c(C(=O)O)csc1Br,-0.8,0.095
O=C(N/N=C/c1c(Cl)nc2ccccn12)c1ccncc1,-0.15,.
Cc1cc(OC(=O)N(C)C)nc(-c2ccc(Cl)cc2)n1,-0.4,0.06
O=c1c2cc(NC(=S)Nc3cccc(C(F)(F)F)c3)ccc2nc2n1CCCCC2,.,0.235
COc1ccc(C2=N/C(=C\c3cccc(OC(C)=O)c3)C(=O)O2)c(Br)c1,.,0.35
COc1ccc(C(=O)Nc2nonc2NC(=O)c2ccc(OC)cc2)cc1,0.5,-0.525
Brc1ccc(Nc2ncnc3c2cnn3Cc2ccccc2)cc1,.,3.35
CCCCn1c(CCNC(=O)c2ccccc2)nc2ccccc21,-1.05,-0.715
O=C1CCc2cc(S(=O)(=O)N3CCCC3C(=O)O)ccc2N1 (stereo not given),-0.85,-0.4
COc1ccc(-c2csc(-c3c(C)noc3N)n2)cc1,-1.5,-0.23
O=C1CN2C(SCc3ccc(Cl)cc3Cl)=Nc3ccccc3C2=N1,.,1.5
CC1=CC(C)(C)c2ccccc2N1Cc1ccccc1,-0.6,52.5
CC(C)Sc1nnc(OC(=O)N(C)C)n1-c1cccc(C(F)(F)F)c1,-0.45,10.5
O=C(CSC1=NCCS1)Nc1cc(C(F)(F)F)ccc1Cl,-0.55,0.035
NCc1cnc2c(c1)CCC2,2.05,-0.725
CC1=NNC(=O)C1CC(=O)N/N=C/c1ccncc1 (stereo not given),-0.75,0.035
CCOC(=O)c1c(NC(=O)CCN2C(=O)c3cccc([N+](=O)[O-])c3C2=O)sc2c1CCC2,.,0.045
O=C(CSc1nc2ccccc2o1)Nc1ccc(S(=O)(=O)NC2CCCC2)cc1,-0.1,.
CCN(C(=O)COc1ncnc2ccccc12)c1ccccc1,0.95,-0.35
O=C(NC1CCCCC1)/C(=C\c1ccco1)NC(=O)c1ccccc1,-0.85,-1.11
CCC1CCCCN1C(=O)CCn1ccnc1 (stereo not given),-0.55,.
COC(=O)c1cccc(OC(N)=O)c1,-0.45,0
Cc1ccc2c(c1)N(C(=O)CCC(=O)NCc1ccco1)CCO2,0.1,-0.075
CCc1nc(=O)c(-c2ccccc2)c(C)n1-c1ccccc1,0.2,-0.145
Cc1ccc(S(=O)(=O)N2C(=O)CCC2C(=O)NCc2nc(-c3ccccc3)no2)cc1 (stereo not given),-0.65,0.32
CCOC(CNC(=O)c1cccc(NC(=O)C(C)(C)C)c1)(OCC)c1ccccn1,.,0.29
Cc1[nH]c2ccccc2c1/C=N/n1cnc2sc3c(c2c1=O)CCCC3,0.6,5.59
Cc1nc(Nc2nc(=O)c3ccccc3n2C)nc2c(C)cccc12,0.4,5
CS(=O)(=O)c1ccc(C(=O)OCc2cn3cc(Cl)ccc3n2)cc1,-0.35,.
NS(=O)(=O)c1ccc(CCNC(=O)c2cccn3c(=O)c4cc5ccccc5cc4nc23)cc1,1.15,0.45
COc1cc(-c2[nH]nc3c2C(c2c(F)cccc2Cl)C(C#N)=C(N)O3)cc(OC)c1OC (stereo not given),.,0.05

# Sorted by molar mass (highest first): part of the list above
SMILES,AID504770,CapD inh
CCOC(=O)c1c(NC(=O)CCN2C(=O)c3cccc([N+](=O)[O-])c3C2=O)sc2c1CCC2,.,0.045
Cc1ccc(S(=O)(=O)N2C(=O)CCC2C(=O)NCc2nc(-c3ccccc3)no2)cc1 (stereo not given),-0.65,0.32
CCOC(CNC(=O)c1cccc(NC(=O)C(C)(C)C)c1)(OCC)c1ccccn1,.,0.29
CC(C)Sc1nnc(OC(=O)N(C)C)n1-c1cccc(C(F)(F)F)c1,-0.45,10.5
CC1=CC(C)(C)c2ccccc2N1Cc1ccccc1,-0.6,52.5
CC1=NNC(=O)C1CC(=O)N/N=C/c1ccncc1 (stereo not given),-0.75,0.035

# The list continues.
SMILES,AID504770,CapD inh
CN1C(=O)C(=Cc2ccc(N3CCN(C(=O)c4ccccc4)CC3)c([N+](=O)[O-])c2)C(=O)N(C)C1=O,.,-0.17
COC(=O)c1c[nH]n2c(=O)cc(CCl)nc12,-0.45,.
O=C(Oc1ccccc1)Oc1ccc2sc(=O)oc2c1,-0.55,-0.73
CS(=O)(=O)c1ccc(F)c(NC(=O)c2c(Cl)cccc2Cl)c1,.,-0.23
c1cnc2nc(CSc3ncn[nH]3)cn2c1,0.5,80.3
N#CC1=C(SCC(N)=O)NC(=O)CC1c1ccccc1 (stereo not given),-0.15,0.105
Clc1ccc(-c2nc(-c3ccccn3)no2)c(Cl)c1,0.75,0.13
COc1cc(/C=C2\Sc3ccccc3C2=O)cc([N+](=O)[O-])c1O,.,-2.11
Cn1c(Sc2ccc(C(F)(F)F)cc2[N+](=O)[O-])nnc1C(F)(F)F,.,-0.53
Clc1ccc(-c2nn[nH]n2)cc1,-0.25,-0.145
COc1nc(NCCN2CCOCC2)nc(Nc2ccc(I)cc2)n1,-0.95,0.6
CCOC(CNC(=O)c1cccc(NC(=O)NS(=O)(=O)c2ccc(C)cc2)c1)(OCC)c1ccccn1,.,1.4
CC1CCCCN1C(=O)CSc1nc2cc3c(cc2c(=O)n1Cc1ccc2c(c1)OCO2)OCO3 (stereo not given),-0.75,0.1
CC1CC(C)(C)N(C(=O)Nc2cccc(Cl)c2)c2ccccc21 (stereo not given),.,-0.39
Cc1[nH]n(-c2nc3ccccc3s2)c(=O)c1C1OC(=O)c2ccccc21 (stereo not given),0.4,-0.815
Cc1ccc(C2(O)CN(c3ccccc3C)C3=[N+]2CCCC3)c(C)c1 (stereo not given),.,0.07
S=C(NCCN1CCOCC1)NN(Cc1ccccc1)c1ccccc1,0.8,.
COc1cccc(NC(=O)Cn2cnc3c2c(=O)n(C)c(=O)n3C)c1,.,0.195
COc1cccc(-c2nc(-c3ccc(NC(=O)c4cccs4)cc3)no2)c1,.,3.99
O=C(Cn1nnc(-c2ccccc2)n1)OCC(=O)c1ccccc1,1.95,.
COc1ccc(-c2nn(C3CC(=O)C4OCC3O4)c(=S)n2-c2ccccc2)cc1 (stereo not given),.,-0.175
COc1cccc(OC)c1Oc1nc(-c2ccc(Cl)cc2)c(S(C)(=O)=O)cc1C#N,.,-0.255
CN1C(=O)c2ccc(C(=O)NC3CCCCC3)cc2C1=O,-0.1,0.015
COc1cccc(C(=O)NC(=S)Nn2cnnc2)c1OC,0.3,.
CC(C)(C)N1CC(O)C1,-0.5,-0.58
CCc1ccc(NC(=O)CSc2nc3cc(C(=O)NCCOC)ccc3c(=O)n2Cc2ccco2)cc1,.,1.08
Cc1nnc(NC(=O)CSc2nnc(CNC(=O)c3ccc(S(=O)(=O)N(C)C)cc3)n2-c2ccccc2)s1,.,0.06
CSc1ncc(S(C)(=O)=O)c(-c2cccc(F)c2)n1,.,0.08
O=c1cc(Nc2ccc(N3CCCCC3)cc2)[nH]c(=O)[nH]1,-1.15,-0.43
CCOC(=O)c1c(N)sn(-c2ccccc2)c1=S,-0.05,.
COc1ccc(S(=O)(=O)N2CCCC(C(=O)N(Cc3cccs3)C3CC3)C2)cc1Cl (stereo not given),1.3,.
O=C(O)COCC(=O)Nc1nnc(C2CC2)s1,-0.85,-1.17
O=C(N/N=C/c1ccncc1)C12CC3CC(CC(C3)C1)C2,0.8,0.255
CCOC(=O)C1=C(C)N=c2s/c(=C3\C(=O)N(C)c4ccccc43)c(=O)n2C1c1ccc(OC(C)=O)cc1 (stereo not given),.,-0.235
CN(C)c1ccc(C(=O)NCCc2ccccc2)cc1,-0.4,.
CSc1scc(NC(=O)c2ccc(C)cc2)c1S(=O)(=O)C(C)C,-0.75,-0.215
O=S(=O)(NCc1csc(-c2cccs2)n1)c1ccc2c(c1)OCCCO2,-1.15,43.6
Cn1c(=O)cc2c3c(c(N4CCCCC4)ccc31)C(=O)c1ccccc1-2,.,0.05
CCN(Cc1ccccc1)c1ccc(/C=N/O)cc1,-0.15,.

# Grouped by structure, those above containing a nitro group on carbon
SMILES,AID504770,CapD inh
Cc1ccc(NC(=O)CSc2nc3ccccc3nc2Cc2cccc([N+](=O)[O-])c2)cc1Cl,.,-0.06
CC1CCN(c2nc(-c3ccc([N+](=O)[O-])cc3)nc3ccccc23)CC1,.,-0.215
CCOC(=O)c1c(NC(=O)CCN2C(=O)c3cccc([N+](=O)[O-])c3C2=O)sc2c1CCC2,.,0.045
CN1C(=O)C(=Cc2ccc(N3CCN(C(=O)c4ccccc4)CC3)c([N+](=O)[O-])c2)C(=O)N(C)C1=O,.,-0.17
COc1cc(/C=C2\Sc3ccccc3C2=O)cc([N+](=O)[O-])c1O,.,-2.11
Cn1c(Sc2ccc(C(F)(F)F)cc2[N+](=O)[O-])nnc1C(F)(F)F,.,-0.53

# Screening data (PubChem BioAssay)
